YopH PTP inh = YopH tyrosine phosphatase inhibitors, primary screen, biochemical, fluorescence Ex485/Em525 | YopH tyrosine phosphatase [Yersinia enterocolitica] | inhibition, %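 (about 10 µM by stock and volumes)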 | 140,000 compounds, 0.16% hits;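 active = inhibition of 50% or more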;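 also: controls were vehicle for no effect and minimum signal wells for full effect; inactives centre near -20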
Mtb bLac sens = beta-lactam sensitization of Mtb H37Rv, H37Rv | M. tuberculosis H37Rv growth with meropenem, percent inhibition; hits of this screen are not shown here | 330,000 compounds, 0.27% hits | AID 434955, 2010 | inhibition, % at 25 µM;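 active = about 74% or more and at least 40 points above the plate without the antibiotic, then above 30% in a dose series; inconclusive = first-round hits that could not be retested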;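 also: growth measured after seven days incubation then overnight dye step; 0% = bacteria only wells and 100% = bacteria with antibiotic; twin plates without the antibiotic show which effects depend on it; some results filed as inactive read as strong as hits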
RecA splice inh = Mtb RecA intein splicing inhibitors, primary screen, biochemical, fluorescence, HTS; 290,000 compounds, 0.75% hits; inhibition, %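 (about 9 µM by stock and volumes)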; cell-free RecA intein splicing; in the data active = inhibition above about 30%; inconclusive = no clear call, values can overlap the other calls;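 also: 0% = vehicle wells and 100% = reference inhibitor control wells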
Target sequence (P9WHJ3 whole entry, looked up, canonical isoform): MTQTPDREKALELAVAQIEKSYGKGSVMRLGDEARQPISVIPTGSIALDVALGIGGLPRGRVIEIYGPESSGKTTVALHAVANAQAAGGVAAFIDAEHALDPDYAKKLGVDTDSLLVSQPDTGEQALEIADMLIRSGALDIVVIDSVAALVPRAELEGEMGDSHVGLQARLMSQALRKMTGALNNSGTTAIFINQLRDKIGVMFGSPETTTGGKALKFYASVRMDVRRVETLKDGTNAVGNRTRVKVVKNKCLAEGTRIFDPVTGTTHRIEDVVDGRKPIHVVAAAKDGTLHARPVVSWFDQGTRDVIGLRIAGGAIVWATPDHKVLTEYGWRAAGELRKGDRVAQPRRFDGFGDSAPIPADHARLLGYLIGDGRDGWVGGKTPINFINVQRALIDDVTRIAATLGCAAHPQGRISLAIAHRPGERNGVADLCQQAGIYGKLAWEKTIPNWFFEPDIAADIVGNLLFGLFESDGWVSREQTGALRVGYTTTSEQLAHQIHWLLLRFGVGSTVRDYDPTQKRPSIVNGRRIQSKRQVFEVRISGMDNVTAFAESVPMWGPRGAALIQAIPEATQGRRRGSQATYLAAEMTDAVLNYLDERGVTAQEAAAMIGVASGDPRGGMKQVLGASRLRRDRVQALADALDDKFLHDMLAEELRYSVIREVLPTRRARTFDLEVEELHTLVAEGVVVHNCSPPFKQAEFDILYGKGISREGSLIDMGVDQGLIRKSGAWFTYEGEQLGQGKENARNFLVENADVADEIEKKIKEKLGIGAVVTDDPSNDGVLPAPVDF
Arbovirus inh = antivirals against arbovirus infection, primary screen, cell-based, full library, 10K replicate subset; arbovirus infection cell-based antiviral screen; inhibition, % at 10 µM; 200,000 compounds, 0.37% hits;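 active = inhibition from about 30%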;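 also: bluetongue infection of BSR cells; cell survival read as ATP light after 72 h; 0% = infected wells without compound and 100% = uninfected wells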
Mtb H37Rv = M. tuberculosis H37Rv growth inhibitors, H37Rv strain (AID 1626); inhibition, % at 10 µM, or IC50 in µM where a hit was titrated; 220,000 compounds, 0.95% hits; M. tuberculosis H37Rv growth inhibition; higher % means a stronger effect;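 active = confirmed in a dose series; inconclusive = inhibition above 80% but not taken into the dose series; inactive = below 80% or under 30% at every dose of the series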;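 also: bacteria incubated seven days before Alamar blue readout; 0% = bacteria only wells and 100% = bacteria with antibiotic wells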
Arbovirus inh repeat = further read-out of Arbovirus inh, marked with its call; inhibition, %; measured here: 10K subset replicate screen; many hits read low in the repeat;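 first of two repeat runs on a subset; 0% = infected and 100% = uninfected wells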
Starred values were filed as active, the others as inactive; ? = inconclusive; · = no result given. Not all compounds are listed; rates above refer to the full screens.

The opening 5 records, to show the layout:
SMILES | YopH PTP inh | Mtb bLac sens | RecA splice inh | Arbovirus inh | Mtb H37Rv | others
CCN(CC)C(=S)Nc1ccc(OC(F)F)cc1 | · | 2 | -2.0 | -9 | 4%
Cc1ccc(S(=O)(=O)NCC(=O)N(CC(=O)NCc2ccco2)Cc2ccccc2)cc1 | · | -3 | -0.6 | · | ·
O=C(CCCC(=O)N1CCN(c2ccccc2F)CC1)c1ccccc1 | · | -11 | 1.8 | · | ·
Cc1cc(C)n(-c2ccc(Cl)c(C(=O)O)n2)n1 | -40 | 9 | -4.3 | -3 | 0%
N#Cc1c(N2CCCCC2)nc(N2CCCCC2)c2c1CCN(Cc1ccccc1)C2 | 0 | 26 | -1.2 | -4 | 13%

Results, from the start:
SMILES | YopH PTP inh | Mtb bLac sens | RecA splice inh | Arbovirus inh | Mtb H37Rv | others
CCN(CC)C(=S)Nc1ccc(OC(F)F)cc1 | · | 2 | -2.0 | -9 | 4%
Cc1ccc(S(=O)(=O)NCC(=O)N(CC(=O)NCc2ccco2)Cc2ccccc2)cc1 | · | -3 | -0.6 | · | ·
O=C(CCCC(=O)N1CCN(c2ccccc2F)CC1)c1ccccc1 | · | -11 | 1.8 | · | ·
Cc1cc(C)n(-c2ccc(Cl)c(C(=O)O)n2)n1 | -40 | 9 | -4.3 | -3 | 0%
N#Cc1c(N2CCCCC2)nc(N2CCCCC2)c2c1CCN(Cc1ccccc1)C2 | 0 | 26 | -1.2 | -4 | 13%
CCOc1ccc(S(=O)(=O)N2CCN(Cc3ccc4c(c3)OCO4)CC2)cc1C | · | 2 | 7.6 | · | ·
CCN=C1SC(CC(=O)NC(N)=O)C(=O)N1CC (stereo not given) | -42 | -15 | 2.0 | 3 | -8% | Arbovirus inh repeat=0
COc1ccc(CN2CCN(C(=O)c3ccc(-c4ccccc4)cc3)CC2)c(OC)c1OC | · | 1 | 2.8 | -10 | -3%
Cc1ccc2nc(-c3cccc(S(=O)(=O)N4CCCC4)c3)cn2c1 | · | -3 | 0.4 | · | ·
CCOc1ccccc1N(CC(=O)NC(C)(C)C)C(=O)CCC(=O)Nc1nccs1 | · | 1 | 1.1 | · | ·
Cc1cccc2cc3cccc(C)c3nc12 | · | 4 | -2.3 | · | 3%
Cc1ccc(S(=O)(=O)Nc2ccc(C(=O)Nc3cc(C)on3)cc2)cc1 | -17 | -1 | 1.9 | 15 | -7%
NC(=O)[C@@H]1CC2(CC(c3cccc(NC(=O)CC(c4ccccc4)c4ccccc4)c3)=NO2)CN1C(=O)[C@@H]1CCC(=O)N1 (stereo not given in full) | · | 3 | 1.4 | · | -7%
CCOC(=O)c1[nH]cnc1C(=O)Nc1ccccc1OC | · | -5 | 6.0 | 1 | -3%
O=C(N[C@H](Cc1ccc(Cl)cc1)C(=O)O)OCC1c2ccccc2-c2ccccc21 | · | 3 | 6.9 | · | ·
O=C(/C=C/c1ccncc1)c1cc(Cl)ccc1O | · | 58 | 5.1 | · | 3%
Cn1nc(OCCOc2ccccc2)ccc1=O | -29 | -9 | -2.4 | 7 | -11%
CCCN(Cc1cc2cc(C)ccc2[nH]c1=O)C(=O)c1ccccn1 | · | 2 | 2.2 | · | 9%
CCN1C(=O)C(CC(=O)Nc2ccc(OC)cc2)N(CCCN2CCN(c3ccc(OC)cc3)CC2)C1=S (stereo not given) | · | 6 | 9.5 | -10 | -7%
O=c1c2ccccc2nnn1CSc1nnc(-c2cccc(S(=O)(=O)N3CCCCC3)c2)o1 | -17 | 5 | 9.6 | -11 | 4%
CCCn1c(NC(=S)Nc2ccccc2)nc2ccccc21 | -10 | 54 | 1.4 | 2 | 8%
CC(C)N(C(=O)N1CCC(c2nc(-c3ccncc3)no2)CC1)C(C)C | 8 | -8 | -3.5 | 4 | -10%
CCc1ccc(NC(=O)CC2NCCNC2=O)cc1 (stereo not given) | 37 | -1 | -1.4 | 4 | -1%
CC(NC(=O)CCc1c[nH]c2ccccc12)c1ccccc1 (stereo not given) | · | -1 | 1.0 | · | ·
Cc1ccnc(NC(=O)CCC(=O)N(CC(=O)NCc2ccc(F)cc2)c2cccc(F)c2)c1 | · | 5 | 1.7 | · | ·

(next part)
SMILES | YopH PTP inh | Mtb bLac sens | RecA splice inh | Arbovirus inh | Mtb H37Rv | others
CN(CC(=O)Nc1ccc(Cl)cc1)C(=O)CNC(=O)c1ccc2ccccc2c1 | · | -19 | -1.4 | · | ·
N#CCCn1nc(Cc2cccc3ccccc23)c(C#N)c1N | · | -7 | 1.3 | · | -7%
CCOc1cc(OCC)cc(C(=O)NC(=S)Nc2cccc(C(F)(F)F)c2)c1 | -25 | 5 | -3.7 | -7 | ·
O=C(CN1CCN(c2ccccc2)CC1)Nc1scc2c1c(=O)oc1ccccc12 | · | -12 | 0.3 | · | 2%
COc1ccc(CN(C)CC(O)COC(c2ccc(OC)cc2)c2ccc(OC)cc2)cc1 (stereo not given) | · | 82 | 4.2 | · | ·
NC1=NN=C(c2ccc3c(c2)OCCO3)CS1 | · | -8 | 5.0 | -2 | 8%
COc1ccc(CNC(=O)C2CCCN(c3nccc(C)n3)C2)cc1 (stereo not given) | -22 | 2 | -4.1 | 1 | -6%
CC(=O)Nc1ccc(S(=O)(=O)Nc2nc3ccccc3nc2Nc2cccc(S(N)(=O)=O)c2)cc1 | · | 5 | -0.2 | · | -9%
CC1CC(C)(C)NC(=S)N1CC(=O)NCc1ccccc1Cl (stereo not given) | -22 | -4 | -0.3 | -1 | -1%
COc1ccc(S(=O)(=O)Cc2ccc(C(=O)NCc3ccccc3)o2)cc1 | · | -8 | -1.3 | · | ·
CC1Cc2ccccc2N1C(=O)CSc1nnc2c(n1)[nH]c1ccc(F)cc12 (stereo not given) | -15 | 65 | 0.1 | -10 | 18%
COc1ccccc1C1C2=C(CC(C)(C)CC2=O)Nc2nnnn21 (stereo not given) | -26 | -9 | 0.3 | -1 | 2%
CN(C)S(=O)(=O)c1ccc(N2CCCC2)c(C(=O)NC2CCCCC2)c1 | · | -3 | -1.1 | · | ·
CC(C)Oc1ccc(Cn2c(-c3ccco3)n[nH]c2=S)cc1 | -15 | -5 | 4.6 | 2 | -6%
COc1ccc(OCc2nnc(SCC(=O)NNC(=O)c3ccc(C)cc3)n2C)cc1 | -25 | 6 | -4.1 | -2 | 2%
CSc1nnc(NC(=O)c2cc(=O)c3cc(C)cc(C)c3o2)s1 | · | ? | · | · | -6%
CC(=O)OC(C(=O)N1CCN(c2ccc(F)cc2)CC1)c1ccccc1 (stereo not given) | -12 | -18 | 0.3 | 0 | 6%
CCNC(=S)Nc1ccc(OCc2nc3ccccc3s2)cc1 | · | 80 | 1.5 | · | ·
CCN1C(=O)/C(=C/c2cnn(C)c2C)SC1=S | -18 | · | · | -5 | 7%
N#Cc1ccc(C23CC4(C2)[C@H](CN(Cc2cccnc2)[C@@H]4c2ccccc2)C3c2ccccc2)cc1 (stereo not given in full) | · | · | 18 | · | 9%
COc1ccc2c(c1)CC(C)C/C2=N\NC(=O)c1ccco1 (stereo not given) | · | 3 | -4.3 | -4 | -3%
Nc1ccc2nc(CN3CCOCC3)[nH]c2c1 | -20 | 3 | 42* | 4 | ·
CCc1ccc(C(=O)NNc2ccc(Cl)cc2)cc1 | · | 97 | 0.5 | · | 77%
CN1/C(=C/C=N/n2cnnc2)C(C)(C)c2ccccc21 | -8 | 1 | -8.1 | -2 | -7% | Arbovirus inh repeat=3
NCCCC[C@@H]1NC(=O)c2cc([N+](=O)[O-])cc(I)c2SC[C@@H](C(=O)NCC(N)=O)NC(=O)CNC1=O | 28 | -8 | -2.2 | 2 | -6%

Following part:
SMILES | YopH PTP inh | Mtb bLac sens | RecA splice inh | Arbovirus inh | Mtb H37Rv | others
COc1cc(-c2c(C#N)c(N)nc3c2c(C)nn3-c2ccc(C)c(C)c2)cc(OC)c1OC | -34 | 6 | 8.3 | -4 | 22%
COc1ccc(C(=O)NCC(c2ccco2)N2CCc3ccccc32)c(OC)c1 (stereo not given) | · | 6 | -2.0 | · | ·
Cc1cc(NC(=O)c2ccc(COc3ccccc3Cl)o2)no1 | · | -7 | 2.4 | -16 | -2%
CCOC(=O)C1=C(Cn2cnc3ccccc32)NC(=O)NC1c1cc(C)ccc1C (stereo not given) | -30 | 9 | 11 | -4 | 1%
CNc1nc(C)nc(-c2ccccc2O)n1 | 1 | -4 | -1.4 | 0 | · | Arbovirus inh repeat=-5
CCOC(=O)N1CCN(C(=O)/C(=C/c2cccs2)NC(=O)c2ccc(OC)c(OC)c2)CC1 | · | 2 | 4.6 | · | ·
CC(=O)N1c2ccc(S(=O)(=O)NCCC(=O)NCCc3ccc(C)cc3)cc2CC1C (stereo not given) | · | -8 | -0.8 | · | ·
CCN1C(=O)C(=C2C=C(C)N(Cc3ccco3)C(C)=C2)C(=O)N(CC)C1=S | · | 0 | -11 | -2 | 3%
COc1ccc(CN(Cc2ccccn2)S(=O)(=O)c2ccc(-n3cnnn3)c(OC)c2)cc1 | -3 | 1 | · | 7 | -1%
CCSc1nc2c(c(=O)n(C)c(=O)n2C)n1Cc1ccc(Cl)cc1 | -93 | 5 | 7.1 | · | 12%
CCOC(=O)c1ccc(NC(=O)Cc2cccs2)cc1 | · | 87 | 1.2 | · | ·
COc1ccc(OC)c(-c2csc(NC(=O)CSc3ccc(Br)cc3)n2)c1 | -17 | 20 | -2.4 | -3 | -5%
C=CC[n+]1c(-c2ccc(OC)cc2)csc1NNC(=O)Nc1ccccc1 | -20 | 15 | 2.2 | 22 | -7%
CCc1[nH]c(=O)c(C#N)c2c1CCCC2 | -23 | -5 | 0.7 | 2 | ·
Cc1oc2cc([N+](=O)[O-])c(O)c([N+](=O)[O-])c2c1C(=O)c1ccc(Br)cc1 | · | 2 | 41* | 8 | 1%
COc1cc(NC(=O)c2ccc(Cl)cc2)c(OC)cc1NC(=O)CN1CCOCC1 | -48 | 83 | -0.4 | -8 | -1%
CCCCNC(=O)C(C#N)c1nc2ccccc2nc1N1CCN(c2ccccc2F)CC1 (stereo not given) | -45 | 6 | -5.7 | -4 | 12%
O=C(CSc1ncnc2c1oc1ccccc12)Nc1cccc(Cl)c1 | -61 | -5 | -0.5 | -4 | -2%
N#Cc1ccc(CSc2nnc(-c3cccc(S(=O)(=O)N4CCCCC4)c3)o2)cc1 | -49 | 1 | 8.4 | 5 | 2%
CC(C)(C)c1ccc(C(=O)N/C(=C\c2ccco2)C(=O)O)cc1 | · | 0 | -3.5 | -4 | -5%
O=C(Nc1ccc2c(c1)CCC2)c1cnn2c1NC(c1ccco1)CC2C(F)(F)F (stereo not given) | -20 | 2 | · | 7 | -2%
CC1CCC(NC(=O)c2cc3c(s2)CS(=O)(=O)C3)CC1 (stereo not given) | -12 | · | · | 5 | 0%
CCC(C(=O)Nc1ccc(C(=O)Nc2ccccc2C(=O)O)cc1)c1ccccc1 (stereo not given) | · | 0 | 4.6 | · | ·
CC1CCc2c(nc3ncnn3c2NCCc2ccccc2F)C1 (stereo not given) | · | -5 | 0.0 | 3 | -4%
CN(C)S(=O)(=O)c1ccc(N2CCCC2)c(C(=O)NCc2cccc(C(F)(F)F)c2)c1 | 3 | 1 | -3.2 | -5 | -8%

Further compounds follow:
SMILES | YopH PTP inh | Mtb bLac sens | RecA splice inh | Arbovirus inh | Mtb H37Rv | others
O=C(C1CCCCC1)N1CCN(c2nc(-c3ccc(F)cc3)cs2)CC1 | · | 2 | 0.9 | 1 | -4%
CN(C)/C=C1/C(=O)NC(=O)N(CCNc2ncc(C(F)(F)F)cc2Cl)C1=O | · | 1 | -4.7 | 3 | 2%
CCN(CC)c1nc(N)nc(N(c2ccccc2)c2ccccc2)n1 | -47 | 8 | 1.8 | 8 | 16%
Cn1cc(-c2ccccc2C(=O)O)c(=O)c2ccccc21 | · | 2 | -1.1 | · | ·
Cc1cc(C)nc(Sc2ccc3nnc(C(F)(F)C(F)(F)C(F)(F)F)n3n2)n1 | -24 | 0 | -0.9 | 0 | 0%
Cc1cc(O)c(-c2cc(C(=O)NCCc3ccc(S(N)(=O)=O)cc3)[nH]n2)cc1C | · | 0 | 4.4 | · | 6%
Cn1nccc1C(=O)NC(=S)Nc1cc(Cl)cc(Cl)c1 | · | 2 | -0.6 | · | ·
CC(=O)Nc1ccc(-c2nc3ccc(NC(C)=O)cc3o2)cc1 | · | -3 | -1.6 | · | ·

Pulled by structure from the entries so far:
SMILES | YopH PTP inh | Mtb bLac sens | RecA splice inh | Arbovirus inh | Mtb H37Rv | others
Cc1cc(C)nc(Sc2ccc3nnc(C(F)(F)C(F)(F)C(F)(F)F)n3n2)n1 | -24 | 0 | -0.9 | 0 | 0%
Cn1nccc1C(=O)NC(=S)Nc1cc(Cl)cc(Cl)c1 | · | 2 | -0.6 | · | ·
Cc1cc(O)c(-c2cc(C(=O)NCCc3ccc(S(N)(=O)=O)cc3)[nH]n2)cc1C | · | 0 | 4.4 | · | 6%
